Compound activity: PubChem BioAssay, several laboratories
MEP2-GFP yeast = modulators of MEP2-GFP levels in yeast, primary screen, S. cerevisiae, multiplex flow cytometry, MLPCN library; 0.51% of 330,000 active; GFP response vs DMSO, % at 10 µM; S. cerevisiae MEP2-GFP strain, 3 h; 100% = DMSO control level;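 active = GFP response versus DMSO above a set limit, roughly screen mean plus 3 SD, cut at about 180% in these data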;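 note: median GFP fluorescence of the barcode-gated MEP2-GFP cells per well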
RPL19A TOR yeast = RPL19A-GFP expression modulators in yeast, primary screen, cell-based, S. cerevisiae, multiplex flow cytometry, MLPCN | S. cerevisiae RPL19A-GFP strain, 3 h; hits give low values | 0.3% of 330,000 active | percent response vs DMSO, % at 10 µM;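 active = percent response vs DMSO below 50%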;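 note: median channel GFP fluorescence of the barcoded RPL19A-GFP strain; ratio of sample median GFP to plate DMSO average so 100% = DMSO; lower means less RPL19A-GFP as with rapamycin TOR inhibition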
CIT2 TOR yeast = modulators of CIT2-GFP expression in yeast, primary screen, S. cerevisiae, GFP fusion, multiplex flow cytometry, MLPCN library; GFP response vs DMSO, % at 10 µM; 0.065% of 320,000 active; AID 2029, 2009; S. cerevisiae CIT2-GFP strain, 3 h; 100 means same as DMSO wells;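 active = GFP response relative to DMSO above a set limit, near the screen mean plus 3 SD, cut at about 150% in these data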;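 note: ratio of well median GFP fluorescence to mean of DMSO wells on the plate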
proCasp7 act = procaspase-7 activators, primary screen, counter-screen for procaspase-3 activator project, biochemical, absorbance, HTS, human. AID 463210, 2010. recombinant procaspase-7, Ac-DEVD-pNA absorbance 405 nm; D23A/D198A/D206A triple mutant, cannot self-cleave; scale: DMSO 0, 5 µM enzyme 100. Caspase-7 (Homo sapiens), P55210. activation, % at 8.5 µM. 0.093% of 330,000 active;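 active = percent activation above the screen-wide mean plus 3 SD, cut at about 25% in these data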
Target sequence (P55210 whole entry D23A/D198A/D206A): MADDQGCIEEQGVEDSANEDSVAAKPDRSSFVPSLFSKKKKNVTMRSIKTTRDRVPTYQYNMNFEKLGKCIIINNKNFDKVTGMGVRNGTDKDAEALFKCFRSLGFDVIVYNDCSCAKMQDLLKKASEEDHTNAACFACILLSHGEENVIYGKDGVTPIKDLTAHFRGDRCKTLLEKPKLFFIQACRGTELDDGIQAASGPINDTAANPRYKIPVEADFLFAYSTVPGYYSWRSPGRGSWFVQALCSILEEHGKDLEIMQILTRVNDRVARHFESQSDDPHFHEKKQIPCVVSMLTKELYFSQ
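Assay system: Uncleavable procaspase-7 mutant enzyme | Input: 2 µM procaspase-7 mutant as dispensed | Timing: 1 h compound preincubation, 2 h substrate cleavage, 25 °C | Repeats: One well per compound | Control set: DMSO wells as 0%, DMSO with 5 µM added PC-7 as 100% | Technique: Epi-absorbance of released pNA at 405 nm, two timepoints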
LAP4-GFP MLPCN = modulators of LAP4-GFP expression in yeast, primary screen, S. cerevisiae, multiplex flow cytometry, MLPCN library; 3 h; median GFP as percent of DMSO wells; GFP response vs DMSO, % at 10 µM; 0.34% of 320,000 active;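 active = GFP response vs DMSO above a set limit, about the screen mean plus 3 SD, cut at about 150% in these data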
AGP1-GFP MLPCN = modulators of AGP1-GFP expression in yeast TOR pathway, primary screen, cell-based, multiplex flow cytometry, S. cerevisiae, MLPCN library; 0.02% of 320,000 active; GFP response vs DMSO, % at 10 µM; 3 h; GFP as percent of DMSO wells;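 active = GFP response relative to DMSO above a set limit, near screen average plus 3 SD, cut at about 150% in these data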;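 note: median GFP channel fluorescence of the gated AGP1 strain per well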
procasp3 activ = activators of human procaspase-3 D3A mutant, primary screen, biochemical, absorbance, PC-3 D3A mutant, single concentration | Caspase-3 (Homo sapiens), P42574 | recombinant procaspase-3 D3A, Ac-DEVD-pNA absorbance 405 nm | activation, % at 8.5 µM | 0.11% of 330,000 active | AID 463141, 2010;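 active = activation above the mean of all tested compounds plus 3 SD, cut at about 21% in these data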;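 note: 0% = DMSO alone and 100% = DMSO wells spiked with extra 5 µM PC-3 D3A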
Target sequence (P42574 whole entry D9A/D28A/D175A): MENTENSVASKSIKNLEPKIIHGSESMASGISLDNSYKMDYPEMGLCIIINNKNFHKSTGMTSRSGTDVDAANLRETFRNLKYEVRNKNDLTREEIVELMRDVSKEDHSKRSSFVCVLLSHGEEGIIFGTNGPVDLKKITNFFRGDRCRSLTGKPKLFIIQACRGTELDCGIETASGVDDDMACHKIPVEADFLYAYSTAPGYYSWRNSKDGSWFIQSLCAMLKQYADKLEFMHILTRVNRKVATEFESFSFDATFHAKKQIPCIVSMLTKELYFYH
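Evaluation: percent activation relative to control range; Material: Procaspase-3 D3A mutant, all three cleavage aspartates alanine; Compound: single dose, 8.5 µM nominal compound, 0.8% DMSO; Replication: one well per compound; Signal: absorbance at 405 nm, 0 and 120 min; Schedule: 1 h preincubation plus 2 h reaction at 25 °C.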
* hit, by the source's call; & = joins results of further samples.

Values run as follows: MEP2-GFP yeast, RPL19A TOR yeast, CIT2 TOR yeast, proCasp7 act, LAP4-GFP MLPCN, AGP1-GFP MLPCN, procasp3 activ
NCc1ccccc1
 : 96.7, 101.1, 87.5, 9.8, 124.6, 86.6, 3.6
CN1CCc2cccc3c2[C@@H]1Cc1ccc(O)c(O)c1-3
 : 96.1, 107.1, 121.6, -24.4, 117.0, 92.6, -18.7
CCc1cc(C(N)=S)ccn1
 : 105.4&91.7, 103.5&97.1, 104.5&89.4, 13.8&0.2, 98.6&105.0, 110.3&87.1, 6.4&-2.0
CN(C)c1nc(N(C)C)nc(N(C)C)n1
 : 101.7, 97.8, 80.2, -0.9, 128.0, 84.6, 1.1
C[C@]12CC[C@@H]3c4ccc(OS(=O)(=O)O)cc4CC[C@H]3[C@@H]1CCC2=O
 : 93.0&99.8&91.3, 90.4&104.4&98.6, 79.3&91.7&101.3, -3.8&2.5&3.1, 94.6&96.8&102.6, 76.3&98.6&93.1, 8.9&12.2&-3.6
CN(C)CCCN1c2ccccc2CCc2ccc(Cl)cc21
 : 99.8, 104.8, 96.5, -2.2, 96.8, 98.1, -0.7
CC[N+](CC)(CC(=O)Nc1c(C)cccc1C)Cc1ccccc1
 : 91.3, 96.1, 78.2, 6.8, 97.8, 93.3, 1.4
COc1ccc(CCN2CCC(Nc3nc4ccccc4n3Cc3ccc(F)cc3)CC2)cc1
 : 99.8, 105.7, 95.5, -1.6, 98.8, 97.7, 5.1
Cc1cccc(Nc2ccccc2)c1
 : 97.2, 93.9, 97.4, -1.2, 106.0, 98.3, 8.0
CNC(=O)Oc1ccc2c(c1)[C@]1(C)CCN(C)C1N2C (stereo partly specified)
 : 96.1&99.8, 102.0&101.0, 85.9&108.1, -5.0&-4.8, 103.5&112.2, 89.5&98.9, -1.4&-4.2
O=C(O)Cc1cc(I)c(Oc2ccc(O)c(I)c2)c(I)c1
 : 93.0, 97.1, 71.1, 0.2, 138.4, 83.0, 1.8
COc1cc(/C=C/C(=O)CC(=O)/C=C/c2ccc(O)c(OC)c2)ccc1O
 : 100.4, 99.5, 95.7, -4.5, 129.2, 88.0, -17.8
COc1cc2c(cc1OC)C(C)=NC1(CCCCC1)C2
 : 95.3, 93.6, 95.0, -0.8, 100.4, 102.8, -7.7
c1ccc(CNc2ncnc3nc[nH]c23)cc1
 : 92.5, 107.5, 127.4, -1.7, 108.3, 94.0, 6.4
Cc1cccc(C)c1OCC(C)N (stereo unspecified)
 : 99.2, 97.8, 90.3, -9.1, 128.0, 92.0, 4.1

Ten neighbouring compounds from above, quoted:
Values run as follows: MEP2-GFP yeast, RPL19A TOR yeast, CIT2 TOR yeast, proCasp7 act, LAP4-GFP MLPCN, AGP1-GFP MLPCN, procasp3 activ
NCc1ccccc1
 : 96.7, 101.1, 87.5, 9.8, 124.6, 86.6, 3.6
CN1CCc2cccc3c2[C@@H]1Cc1ccc(O)c(O)c1-3
 : 96.1, 107.1, 121.6, -24.4, 117.0, 92.6, -18.7
CCc1cc(C(N)=S)ccn1
 : 105.4&91.7, 103.5&97.1, 104.5&89.4, 13.8&0.2, 98.6&105.0, 110.3&87.1, 6.4&-2.0
CN(C)c1nc(N(C)C)nc(N(C)C)n1
 : 101.7, 97.8, 80.2, -0.9, 128.0, 84.6, 1.1
C[C@]12CC[C@@H]3c4ccc(OS(=O)(=O)O)cc4CC[C@H]3[C@@H]1CCC2=O
 : 93.0&99.8&91.3, 90.4&104.4&98.6, 79.3&91.7&101.3, -3.8&2.5&3.1, 94.6&96.8&102.6, 76.3&98.6&93.1, 8.9&12.2&-3.6
CN(C)CCCN1c2ccccc2CCc2ccc(Cl)cc21
 : 99.8, 104.8, 96.5, -2.2, 96.8, 98.1, -0.7
CC[N+](CC)(CC(=O)Nc1c(C)cccc1C)Cc1ccccc1
 : 91.3, 96.1, 78.2, 6.8, 97.8, 93.3, 1.4
COc1ccc(CCN2CCC(Nc3nc4ccccc4n3Cc3ccc(F)cc3)CC2)cc1
 : 99.8, 105.7, 95.5, -1.6, 98.8, 97.7, 5.1
Cc1cccc(Nc2ccccc2)c1
 : 97.2, 93.9, 97.4, -1.2, 106.0, 98.3, 8.0
CNC(=O)Oc1ccc2c(c1)[C@]1(C)CCN(C)C1N2C (stereo partly specified)
 : 96.1&99.8, 102.0&101.0, 85.9&108.1, -5.0&-4.8, 103.5&112.2, 89.5&98.9, -1.4&-4.2

Going on with the list:
Values run as follows: MEP2-GFP yeast, RPL19A TOR yeast, CIT2 TOR yeast, proCasp7 act, LAP4-GFP MLPCN, AGP1-GFP MLPCN, procasp3 activ
COc1ccc2cc3[n+](cc2c1OC)CCc1cc2c(cc1-3)OCO2
 : 91.3, 95.7, 83.9, -0.8&-5.3, 93.0, 92.4, 1.0&3.2
CC(=O)Nc1ccccc1O
 : 94.2, 95.7, 80.2, 12.9, 100.3, 85.9, 16.0
CN1CCN2c3ncccc3Cc3ccccc3C2C1 (stereo unspecified)
 : 102.9, 98.7, 100.3, -2.8, 111.9, 103.4, 10.3
O=C(O)/C=C1\CCCc2ccccc2C1O (stereo unspecified)
 : 102.2, 97.9, 74.3, -13.7, 99.7, 81.8, 3.9
OC[C@@H](O)[C@@H](O[C@H]1O[C@H](CO)[C@@H](O)[C@H](O)[C@H]1O)[C@H](O)[C@@H](O)CO
 : 96.1, 100.1, 76.2, -3.2, 103.5, 84.0, -8.8
CCn1cc(C(=O)O)c(=O)c2ccc(C)nc21
 : 92.5, 100.1, 83.9, 4.2, 85.3, 95.8, 4.8
CN/C(=C/[N+](=O)[O-])NCCSCc1csc(CN(C)C)n1
 : 107.1, 103.7, 96.5, -3.2, 106.4, 101.5, -2.4
CC(=O)Nc1c(I)c(NC(C)=O)c(I)c(C(=O)O)c1I
 : 100.4&97.3&95.5, 98.6&100.6&99.6, 84.8&80.1&83.9, 2.0&6.4&5.2, 106.1&102.6&115.3, 88.2&87.7&83.4, -2.5&0.5&-1.0
CC(=O)OCC(=O)C1(O)CCC2C3CCC4=CC(=O)C=CC4(C)C3C(O)CC21C (stereo unspecified)
 : 91.5, 97.3, 90.0, 0.7, 107.2, 100.0, 2.8
CN1CCc2cccc3c2[C@H]1Cc1ccc(O)c(O)c1-3
 : 104.1&98.6&95.5, 106.9&90.1&96.4, 107.9&88.8&85.7, -25.3&-38.6&-14.6, 107.3&105.5&115.3, 111.0&81.3&91.1, -12.9&-20.1&-25.5
CCN(CC)CCOC(=O)C(c1ccccc1)C1CCCCC1 (stereo unspecified)
 : 102.9, 102.7, 101.2, 12.4, 95.7, 102.2, 4.3
O=Cc1ccc(Cl)c(Cl)c1
 : 95.9, 96.3, 90.5, 6.6, 97.6, 95.8, -1.1
Cc1cc(Cc2ccc(N)c(C)c2)ccc1N
 : 110.9, 95.8, 81.1, 2.8, 101.8, 92.1, -3.9
O=Nc1c(-c2c(O)[nH]c3cc(Br)ccc23)[nH]c2ccccc12
 : 94.9, 97.0, 104.2, -22.1, 103.5, 95.9, -10.8
CCN(Cc1ccncc1)C(=O)C(CO)c1ccccc1 (stereo unspecified)
 : 93.7, 97.0, 98.4, 4.2, 98.8, 90.5, -1.5
O=c1n(CCCN2CCN(c3cccc(Cl)c3)CC2)nc2ccccn12
 : 97.9, 96.8, 84.8, 8.4, 122.3, 87.5, 1.0

The list is partial (hit frequency here may not be typical).
